# Source: PubChem
# PrP UTR inh: suppresses PrP 5' UTR mRNA reporter expression | cell-based PrP 5' UTR mRNA reporter, plate reader | inhibition, % (no concentration beside the values) | 340,000 tested, 0.35% active;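 active = every replicate at 50% or more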;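 note: 0 = median of the neutral control wells; tested in H4 reporter cells; numbers are from one replicate; inactives centre near -14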
# Sa RN4220 lethal: S. aureus RN4220 growth inhibition | inhibition, % (test concentration not listed) | 330,000 tested, 0.33% active | OD600, 16 h;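 active = z-score of -3 or lower and OD600 up to 0.18 on both plates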;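 note: plate controls were untreated cells for no effect and reference antibiotic for full effect; stock transfer was 100 nL into about 80 µL; one replicate is shown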
# Mtb hypoxia rep: inhibitors of hypoxia-regulated fluorescent reporter in Mycobacterium tuberculosis | 300,000 tested, 0.1% active | fluorescence inhibition, % (test concentration not listed) | AID 1159583 | M. tuberculosis hypoxia-regulated fluorescent reporter, fluorescence;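 active = 35 to 45% if threefold the growth effect, above 45% if 1.5-fold the growth effect; inactive = the rest, general growth blockers included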;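 note: wells of about 50 µL received 100 nL stock; 0% = vehicle wells and 100% = reference inhibitor wells; whole bacteria with a GFP reporter of the hypoxia response; strong numbers were not always called active; many hits fall short of the cut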
# BJeLR viability: kills HRASV12-expressing BJeLR cells; BJeLR (HRASV12) viability, CellTiter-Glo ATP luminescence, 48 h; reference of the scale not given here; inhibition, % (concentration not given with the values); 300,000 tested, 0.17% active; AID 1554;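 active = replicate mean above 50%; inconclusive = above 50% but judged a plate artefact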;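 note: 50 nL library stock added to about 25 µL; numbers are from one replicate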
# Bead autofluor: flagged as autofluorescent in microsphere protease counterscreen | compound autofluorescence counterscreen, microsphere flow cytometry; hits give high values | fluorescence intensity (test concentration not listed) | 360,000 tested, 3.1% active;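 active = at least 3 SD above the mean of all compounds, about 16000 in these data; inconclusive = too few beads counted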;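 note: 100 nL of 1 mM stock went into each well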
# ugtP null kill: growth inhibition of S. aureus ugtP deletion strain. S. aureus RN4220 ugtP deletion, OD600 growth, 16 h; some inactives read as strong as hits. growth inhibition, % (no concentration beside the values). 330,000 tested, 0.54% active. AID 1259309;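 active = z-score under -3 and OD600 up to 0.15 on both plates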;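 note: plate controls were untreated wells for no effect and antibiotic for full effect; wells of about 80 µL received 100 nL stock; the first replicate is given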
# Mtb hypoxia rep growth: second read-out of Mtb hypoxia rep, no call of its own (marks repeat the call); growth inhibition, %; measured here: M. tuberculosis growth (absorbance);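 0% = vehicle and 100% = reference antibiotic; read after six days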
# Active calls of the source: *; ? = inconclusive; / = not tested or not shown.
SMILES,PrP UTR inh,Sa RN4220 lethal,Mtb hypoxia rep,Mtb hypoxia rep growth,BJeLR viability,Bead autofluor,ugtP null kill
COc1ccc(C(=O)Oc2ccc(/C=N/NC(=O)Cc3ccc([N+](=O)[O-])cc3)cc2)cc1,2,/,/,/,-5,2469,/
COc1c(Cl)cc(-c2noc(C)c2C(=O)NCc2ccccc2)cc1Cl,-27,4.1,/,/,-3,5653,4
COc1cccc(C(=O)n2c(SC)nc3cc4c(cc32)OCCO4)c1,-27,5.6,7,10,0,11367,0
CN(C)CCn1c(=S)[nH]c2ncccc2c1=O,-2,2.4,8,9,-5,4270,-1
Cc1cc2c3c(c1C)C(=O)C(=O)N3C(C)(C)CC2C (centres undefined),4,5.3,-6,4,4,2362,1
CCCCn1c(N)c(N(CCC(C)C)C(=O)COC(=O)c2cccnc2SC)c(=O)[nH]c1=O,-28,-0.2,4,4,/,5148,-1
CCn1nc(C(C)C)cc1C(=O)N1CCCC(CO)(Cc2ccc(F)cc2F)C1 (centres undefined),4,1.4,4,4,-3,6522,-1
O=C(CC1C(=O)NCCN1CCCc1ccccc1)NCCc1ccccc1Cl (centres undefined),-18,3.9,6,-1,4,4965,-2
Cc1cc(=O)oc2cc(OCC(=O)NCCCN3CCCC3=O)c(Cl)cc12,-11,1.6,5,4,5,5386,4
CCCSc1nc2c(c(=O)[nH]c(=O)n2C)n1C,-19,3.7,9,7,-17,5077,12
Cc1noc(C)c1S(=O)(=O)N1CCC(C(=O)NCCC2=CCCCC2)CC1,-5,7.4,/,/,4,2381,8
C(=NNC1=Nc2cccc3cccc1c23)c1ccccn1,/,11,22,28,/,/,9
O=C(NCCc1c[nH]c2ccccc12)C(F)(F)F,-18,-4.1,/,/,5,5950,5
CCCC(c1nnnn1CC1CCCO1)N1CCN(c2nc3ccccc3s2)CC1 (centres undefined),-9,4.6,/,/,5,2316,11
CCN1CNC(=S)N(c2ccccc2C)C1,3,1.2,4,7,-4,3892,13
Nn1c(SCc2ccc(F)cc2)nnc1-c1ccncc1,-19,1.3,5,11,0,3272,2
O=C(NCc1cccs1)C12CC3CC(CC(C3)C1)C2,-38,5.2,23,8,-4,4360,12
O=C(O)CN1C(=O)/C(=C\C(Br)=C\c2ccccc2)SC1=S,-21,32,6,0,7,3671,23
COc1cc(C(C)=O)ccc1OC(=O)C(C)N1C(=O)c2ccccc2C1=O (centres undefined),-12,7.2,15,12,-5,10367,3
CC1CC(=O)N(CC(=O)N2CCCC2)c2ccccc2S1 (centres undefined),-12,3.2,3,12,-11,11495,-3
CCOc1ccc(Nc2nc(N3CCCCC3)nc(N3CCCCC3)n2)cc1,-11,-2.0,7,3,-12,12774,92*
CC(C)c1ccc(S(=O)(=O)N2CCC(C(=O)NCC3(N(C)C)CCCCC3)CC2)cc1,1,1.1,7,-1,17,6088,13
O=C(c1cnn2c(C(F)F)cc(C3CC3)nc12)N1CCOCC1,-22,1.5,/,/,-3,2391,8
COc1nc(Nc2nc3ccccc3c(=O)[nH]2)nc2ccc(C)cc12,49,100*,12,12,41,3194,100*
COc1ccc(C=Nn2c(-c3n[nH]c4c3CCC4)n[nH]c2=S)cc1,/,4.8,16,11,/,/,4
CC(=O)OC1C[C@@]2(C)C(CC(O)C3[C@@]4(C)CCC(O)C(C)C4CC[C@@]32C)C1=C(CCC=C(C)C)C(=O)O (some centres undefined),/,100*,/,/,/,/,100*
CSc1ccccc1NC(=O)c1c(C)noc1C,-4,3.8,4,5,-2,22017*,3
CSCCC(NC(=O)c1ccccc1Cl)C(=O)OCC(=O)N1CCCC1=O (centres undefined),8,-2.9,-5,5,0,?,-2
O=C(c1ccc(Cl)c(S(=O)(=O)N2CCCCCC2)c1)N1CCN(c2ccccc2O)CC1,-4,1.3,-5,11,-33,3275,5
O=c1[nH]c(=O)c2nnc(N/N=C/c3ccccc3F)nc2[nH]1,-19,/,/,/,0,5720,/
CC1CCN(CCC(=O)Nc2ccc3c(c2)CCC3)CC1,16,0.2,4,3,21,6265,4
O=C(CCCN1C(=O)c2cccnc2C1=O)Nc1ccc(Br)cc1,-7,9.8,5,4,-6,3270,6
O=C(COc1ccc(S(=O)(=O)NCc2ccccc2)cc1)NCc1cccnc1,12,0.4,-14,2,-9,7476,-1
Cc1ccc(-n2cc(CNCCN3CCOC3=O)c(-c3ccc(F)cc3)n2)cc1,31,6.5,-2,0,18,4926,1
COC(=O)C1=C(C)NC(C)=C(C(=O)OC)C1C(=O)OCC(=O)c1ccc(F)cc1,-4,7.6,5,13,-1,3296,4
COC(=O)C1=C(C)NC(=O)C1(Nc1ccc(Cl)cn1)C(F)(F)F (centres undefined),-19,3.0,4,5,0,7438,-4
CCOc1cc(/C=C/C(=O)c2ccc(C)cc2)ccc1OCC(=O)N(C)C,-23,9.4,1,11,15,10243,5
CC(=O)N=Nc1[nH]c(N)c2ccccc12,-35,-1.1,-2,11,-3,2797,14
COC(=O)C1(Cc2ccc(O)c(CC3OC3(C)C)c2)OC(=O)C(O)=C1c1ccc(O)cc1 (centres undefined),-26,3.4,/,/,6,5345,6
C=COCCn1c(C)c(C(C)=O)c2cc(O)ccc21,0,-0.6,-2,4,15,4519,0

# Exported with values under each structure: part of the list above.
# Fields – PrP UTR inh, Sa RN4220 lethal, Mtb hypoxia rep, Mtb hypoxia rep growth, BJeLR viability, Bead autofluor, ugtP null kill
- COc1ccc(C(=O)Oc2ccc(/C=N/NC(=O)Cc3ccc([N+](=O)[O-])cc3)cc2)cc1
 : 2, /, /, /, -5, 2469, /
- O=C(CCCN1C(=O)c2cccnc2C1=O)Nc1ccc(Br)cc1
 : -7, 9.8, 5, 4, -6, 3270, 6
- Nn1c(SCc2ccc(F)cc2)nnc1-c1ccncc1
 : -19, 1.3, 5, 11, 0, 3272, 2
- CCCSc1nc2c(c(=O)[nH]c(=O)n2C)n1C
 : -19, 3.7, 9, 7, -17, 5077, 12

# Next records:
SMILES,PrP UTR inh,Sa RN4220 lethal,Mtb hypoxia rep,Mtb hypoxia rep growth,BJeLR viability,Bead autofluor,ugtP null kill
C#CCOCCOCCOCCNc1nc(N2CCN(C(=O)C(CCCCN)n3cc(CN)nn3)CC2)nc(N2CCN(C(=O)C(CCCCN)n3cc(C(N)C(C)CC)nn3)CC2)n1 (centres undefined),/,7.3,10,9,/,/,-4
COc1ccc(CC(=O)NCc2ccccc2)cc1OC,-89,2.4,0,2,12,4181,5
Cc1nn(Cc2ccc([N+](=O)[O-])cc2)c(=O)n1-c1cccc(F)c1,-22,2.9,11,6,-16,/,5
COc1ccc(-c2nnc(SCC(=O)N/N=C/c3ccccc3C(=O)O)n2-c2ccccc2)cc1,-31,/,/,/,-4,3332,/
CC(=O)Nc1ccc(OCC(O)CN2CCCCC2C)cc1 (centres undefined),7,3.1,2,-3,-1,2148,3
COc1ccc(Cl)cc1NC(=O)Nc1ccccc1C(N)=O,-27,-2.9,5,12,-10,2809,-2
CC(C)CNC(=O)/C=C/C=C/CCCCCC/C=C/c1ccc2c(c1)OCO2,-29,1.5,/,/,/,5690,-6
Cc1cccc(C)c1OCCCN1CCCC1,-9,-12,-1,7,1,3102,-8
O=c1c(=Cc2ccc3c(c2)OCO3)sc2n1CCCN=2,/,8.2,16,3,/,/,-1
Oc1c(Br)cc(Cl)cc1C=Nc1ccccc1Br,-24,-8.5,13,6,4,2599,7
COc1ccc(O)c(/C=C(\C#N)C(=O)Nc2cccnc2)c1,-37,3.6,3,-2,2,2187,-2
Cc1cccc(CN2C[C@]34CC[C@@H](C[C@@H]3S2(=O)=O)O4)c1,-13,/,/,/,10,3078,/
COC(=O)C1Sc2[nH]c(=O)sc2C(c2ccc(Cl)cc2)C1C(=O)OC (centres undefined),1,18,8,8,0,4468,5
Cc1ccc(NCc2nnc(SC(C)C(=O)N/N=C/c3ccc(C)o3)n2-c2ccccc2)cc1 (centres undefined),-25,/,/,/,3,3264,/
CCOC(=O)N1CCN(C(=O)CN(c2ccccc2OC)S(=O)(=O)c2ccc(C)cc2)CC1,-21,7.8,0,2,-3,9379,0
COc1cc(C2C(C#N)=C(N)OC3=C2C(=O)CC(C)(C)C3)ccc1OC(=O)N1CCOCC1 (centres undefined),-26,6.5,5,3,3,12076,5
O=C(CNC(=O)c1ccc(F)cc1)NCc1ccc(Cl)cc1,-16,-0.3,-2,8,9,5308,3
O=C(NN=C/C=C/c1ccccc1)c1cccs1,/,2.0,8,2,/,/,-3
O=c1c2c(nc3n1CCCCC3)sc1c(O)c(Br)ccc12,-22,2.2,9,5,11,7333,11
O=C(NCc1cccnc1)C(=O)Nc1nc(C23CC4CC(CC(C4)C2)C3)cs1,-7,-0.7,-9,3,0,4588,-25
CCN(CC(=O)Nc1ccccc1OC)CC(=O)Nc1sccc1C#N,-24,-9.8,9,2,6,4551,8
CC1C(c2ccccc2)=NNc2nc3c(c(=O)n(C)c(=O)n3C)n21 (centres undefined),/,4.8,3,9,-4,/,6
N#CCCn1cc(C(=O)O)c(-c2ccc3ccccc3c2)n1,-13,4.3,14,5,-1,/,1
COCC1CCCN(C(=O)c2ccc(OC3CCN(Cc4ccccn4)CC3)cc2)C1 (centres undefined),-10,5.0,1,-2,-12,4258,4
CN1C(=O)C(O)(CC(=O)c2cccs2)c2ccccc21 (centres undefined),-7,7.2,17,6,-6,3087,3
OC1CCCN(c2c3c(nc4cc(-c5cccc(F)c5)nn24)CCCC3)C1 (centres undefined),-60,5.8,1,7,-4,2082,-5
CC(C)(C)NC(=O)C(c1ccc(O)cc1)N(C(=O)Cn1nnc(-c2ccc(F)cc2)n1)c1ccccc1F (centres undefined),-5,-1.3,3,2,-5,4263,2
Cc1csc2ncc(C(=O)Nc3cccc(C(F)(F)F)c3)c(=O)n12,-47,0.1,1,-1,0,5201,4
O=c1ccc2cc(S(=O)(=O)N3CCN(c4ccc(Cl)cc4)CC3)ccc2o1,-25,2.5,9,-3,9,3824,12
O=C(CN1C(=O)NC2(CCCC2)C1=O)OCc1cc(=O)n2cc(Br)ccc2n1,-8,3.9,11,8,6,5771,6
Cc1ccc(NC2CCCN(C(=O)CSc3ccncc3)C2)cc1C (centres undefined),-12,0.3,-6,-8,10,5446,-1
CCCCn1c(N)c(N(CCOC)C(=O)c2oc3ccc(Br)cc3c2C)c(=O)[nH]c1=O,-10,5.9,26*,51*,/,4276,11
CC(C)Oc1ccc(CN2CCC(n3nccc3NC(=O)C3CC3)CC2)cc1,-30,2.9,12,-2,-7,5500,2
Cc1ccc(C(=O)N2CCN(S(=O)(=O)c3ccccc3[N+](=O)[O-])CC2)o1,-25,4.0,-2,-2,-1,4162,0
CCC1(CC)NC(=O)N(CC(=O)N2CCN(S(=O)(=O)c3cccc(F)c3)CC2)C1=O,-23,2.0,8,-10,6,5629,12
CC(=O)NCc1ccc(C(=O)CN2C(=O)NC3(CCCCC3C)C2=O)s1 (centres undefined),-20,5.0,13,6,/,6101,2
C=CCSc1[nH]c(=O)cc(C)c1C(N)=O,-17,4.6,5,9,-1,19287*,0
O=C(OCC(=O)c1ccc(Cl)s1)c1cncc(Br)c1,-7,4.7,29*,59*,/,3654,7
COc1ccc(N(C)C(=O)c2ccc3nc(-c4ccccc4)c(-c4ccccc4)nc3c2)cc1,-53,-3.5,/,/,1,2724,46
CCCCNC(=O)CSc1nnc(NC(C)=O)s1,-36,-8.3,-2,5,-5,/,-3
COc1cc(Cl)ccc1OCc1cc(C(=O)N[C@H]2CCCCNC2=O)no1,-37,5.0,10,8,-7,5711,0
CCC1CCCCN1C(=O)CCCOc1ccccc1 (centres undefined),-19,5.2,/,/,-4,2350,0
Cc1cccc(CS(=O)(=O)c2nnc([C@H](Cc3ccccc3)NC(=O)OC(C)(C)C)o2)c1,/,5.3,6,13,-16,10130,38
Cc1nc(N2CCN(S(=O)(=O)c3ccc(F)cc3)CC2)c2c(-c3cccs3)csc2n1,-28,7.8,-3,-10,-4,4968,-4
O=C(O)CCc1nc2cc(C(F)(F)F)ccc2n(Cc2ccccc2)c1=O,-26,-2.1,-2,6,1,5111,14
